# Sfp PPTase inh = inhibitors of Bacillus subtilis Sfp phosphopantetheinyl transferase; Biochemical Sfp PPTase activity, qHTS; AID 1490; Potency, µM, for the others: max response, negative = inhibition, hits mostly inhibitors; Q9F4F7; 3.5% of 310,000 active; active means well fitted inhibition curve with a large enough effect; inconclusive means small, poorly fitted or top-dose-only effect, or another doubt; inactive means no such curve, though single readings can be large or run the other way;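 further: the enzyme is Sfp with the accession as filed and its product quenches rhodamine fluorescence; potency means the concentration at half of the fitted maximal effect; 0% = enzyme reaction without inhibitor and -100% = no enzyme wells; top concentration of the series not given in the record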
#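 With Hepes-Na pH 7.6 buffer containing 10 mM MgCl2, Sfp (15 nM) modified BHQ-2-YbbR (12.5 uM) using rhodamine-CoA (5 uM). Two reads 30 minutes apart at 525/598 nm yielded each well's rate.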
# D2 agonist = activates the human D2 dopamine receptor | P14416 | DiscoveRx PathHunter D2 beta-arrestin, luminescence, 90 min; 100% = 57 uM dopamine signal | activation, % (no concentration beside the values) | 0.084% of 360,000 active | AID 624465; in the data active = activation above about 40%; inconclusive = about 15% to 40%; inactive = below about 15%; further: compound concentration not given in the record; the text of the record calls up to 30% inactive
#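 Agonist mode: compounds alone added to overnight-plated D2 PathHunter cells for 90 min at 37 C, with 57 uM final dopamine (EC100) defining full response. Beta-arrestin recruitment detected by chemiluminescent reagent, read after 1 h at ambient temperature.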
# Six1-Eya2 blk = inhibitors of human Six1/Eya2 interaction; activity change, % (test concentration not listed); 0.56% of 360,000 active; Q15475+O00167; AlphaScreen GST-Six1/His-Eya2 binding, biochemical; active compounds read low; control for the full effect not named in the record; in the data active = activity change below about -65%; inconclusive = about -30% to -65%; inactive = above about -30%; further: on the % scale 0 is the no-effect control and ±100 the full control effect
# Target sequence (O00167 whole entry, looked up): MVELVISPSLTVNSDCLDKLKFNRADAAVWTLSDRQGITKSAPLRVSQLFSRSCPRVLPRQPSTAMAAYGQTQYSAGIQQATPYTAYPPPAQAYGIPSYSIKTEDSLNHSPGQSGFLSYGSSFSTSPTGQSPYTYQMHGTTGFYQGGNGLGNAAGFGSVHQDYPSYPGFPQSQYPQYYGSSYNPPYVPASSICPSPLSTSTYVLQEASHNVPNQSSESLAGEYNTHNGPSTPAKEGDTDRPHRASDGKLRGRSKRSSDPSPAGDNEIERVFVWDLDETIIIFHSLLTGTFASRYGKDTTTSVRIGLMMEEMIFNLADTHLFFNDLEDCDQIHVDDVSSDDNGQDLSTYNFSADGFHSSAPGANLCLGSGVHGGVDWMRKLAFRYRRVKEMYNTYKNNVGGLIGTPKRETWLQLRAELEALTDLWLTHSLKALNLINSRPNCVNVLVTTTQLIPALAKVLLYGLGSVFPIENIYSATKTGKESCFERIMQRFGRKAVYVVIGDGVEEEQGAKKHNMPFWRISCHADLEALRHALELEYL
# Target sequence (Q15475 whole entry, looked up): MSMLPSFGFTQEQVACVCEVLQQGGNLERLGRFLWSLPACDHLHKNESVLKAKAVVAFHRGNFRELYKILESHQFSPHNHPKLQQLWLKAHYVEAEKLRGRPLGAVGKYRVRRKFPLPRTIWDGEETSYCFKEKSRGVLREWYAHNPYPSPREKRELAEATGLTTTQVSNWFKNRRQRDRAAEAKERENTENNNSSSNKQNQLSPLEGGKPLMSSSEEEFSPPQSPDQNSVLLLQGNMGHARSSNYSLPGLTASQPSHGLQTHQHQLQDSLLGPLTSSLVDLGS
#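 Homogeneous AlphaScreen proximity assay pairing GST-Six1 with His-tagged Eya2 (added as 5X mix: 250 nM and 500 nM) in 50 mM Tris pH 8.0, 300 mM NaCl, 1 mM TCEP. Glutathione donor and nickel acceptor beads; 1 h, 37 °C, dark.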
# D2 PAM = potentiates the human D2 dopamine receptor allosterically; DiscoveRx D2 beta-arrestin cells, luminescence, 90 min; 100% = 57 uM dopamine signal; potentiation, % (concentration not given with the values); 0.23% of 360,000 active; AID 624464; active = potentiation of 50% or more; inconclusive = 30% to 50%; inactive = 30% or less;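 further: compound concentration not given in the record; tested on top of an EC20 dose of dopamine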
#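 D2 cells co-treated with compound plus 50 nM dopamine (EC20) for 90 min at 37 deg C to detect potentiation. Beta-arrestin recruitment was read as enzyme-fragment luminescence after 1 h at ambient temperature. Full response was set by 57 uM dopamine.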
# PINK1 modulator = changes PINK1 expression | AID 624263 | Potency, µM (titrated, usually from 76.6 µM), inactives show at the top dose activation (PINK1 increase), actives largely listed as activators | PINK1 immunofluorescence, high-content cytometry, 24 h | 0.2% of 410,000 active; active = well fitted activation curve with a large enough effect; inconclusive = small, poorly fitted or top-dose-only effect; inactive = flat fitted curve, though single readings scatter; cell line not stated here;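 further: potency means the concentration at half of the fitted maximal effect; % of control where 0% means no effect; nearly all actives have a fitted effect of over 65% in size; a mitochondrial uncoupler was the plate control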
#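 Decision-based qHTS: stable cells, 24 h exposure to five compound concentrations, CCCP as control. Fixed cells stained for PINK1 plus nuclear, mitochondrial and cell markers, cytometer read.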
# TRPV1 PAM = human TRPV1 potentiation | TRPV1-expressing cells, Fluo-8 calcium influx, capsaicin EC20 potentiation; host cell line not named in the record; control for the full effect not named in the record | Q8NER1 | 0.02% of 320,000 active | potentiation, % at 8.33 µM; active means potentiation above 80%; inconclusive means 30% to 80%; inactive means below 30%; further: 0% is about no effect
#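 Cells expressing TRPV1 were dye-loaded with Fluo-8 and read kinetically: 10 s baseline, 3 min after compound (agonist portion), then 2 min after EC20 capsaicin (allosteric enhancer portion). Calcium-bound dye fluorescence at 480/520 nm.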
# CtBP-E1A blk = CtBP/E1A binding inhibition; AlphaScreen GST-E1A/His-CtBP binding, 1536-well; active compounds read low; control for the full effect not named in the record; activity change, % (concentration not given with the values); 0.49% of 340,000 active; in the data active means activity change below about -65%; inconclusive means about -30% to -65%; inactive means above about -30%; further: on the % scale 0 is the no-effect control and ±100 the full control effect
#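 Protein mix (5X: 125 nM each GST-E1A, His-CtBP) was incubated with pinned compound 2 h at 37 deg C in dark, in 50 mM Tris pH 8.0 buffer with 300 mM NaCl. Glutathione donor and nickel acceptor beads followed; AlphaScreen signal read after 1 h.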
# The depositor's hits bear a star; ? = inconclusive; . = no result given; [ ] = dose if it differs, or a comment.
SMILES,Sfp PPTase inh,D2 agonist,Six1-Eya2 blk,D2 PAM,PINK1 modulator,TRPV1 PAM,CtBP-E1A blk
CCOC(=O)c1c(/N=C/c2cc(C)ccc2O)sc2c1CCC2,?,2.0,-11,-13,3.4%,2,-10
Cc1cc(Nc2cccc(F)c2)n2c(n1)nc1ccccc12,0%,-0.6,2,-1,.,20,10
NNC(=O)c1ccc(CSc2nc3ccccc3[nH]2)cc1,13%,5.0,-10,-38,-0.9%,5,30
CN(C(=O)CC1C(=O)NCCN1Cc1cccc(F)c1F)C1CCOCC1 (stereo not drawn),-3%,-0.9,-2,6,-2.4%,-3,1
CCCc1nc2ccccc2n1CC(O)COc1ccc(NC(C)=O)cc1 (stereo not drawn),9%,-3.2,-1,6,0.8%,-5,-2
C/C(=N\NC(=O)c1c(Br)c(C)nn1C)c1ccc(NC(=O)C(C)Oc2ccc(Cl)cc2C)cc1 (stereo not drawn),?,?,13,10,2.1%,-26,0
Cc1cc(N)n(-c2nc(-c3cccnc3)nc3ccccc23)n1,5%,-3.7,-22,-2,-2.0%,-3,-16
O=C(COc1ncnc2cc([N+](=O)[O-])ccc12)NC(=O)NC1CCCCC1,22%,?,-7,2,0.2%,7,.
CCCc1ncc(C(O)c2ccccc2OC)n1C (stereo not drawn),25%,0.3,6,0,2.8%,-8,8
COCCCn1c(C23CC4CC(CC(C4)C2)C3)n[nH]c1=S,?,-1.4,13,-16,2.3%,-11,.
COc1ccc(-c2cc(=O)oc3cc(OCc4nn[nH]n4)ccc23)cc1,15%,1.9,-3,-5,-2.0%,-12,-10
NS(=O)(=O)c1ccc(NC(=O)CNC(=O)c2ccc3c(c2)OCO3)cc1,.,0.3,7,-6,2.2%,.,2
O=C(N/N=C/c1cn(-c2cccs2)nc1-c1ccccc1)c1ccc(O)cc1,-13%,3.0,-3,2,-0.4%,0,1
CCCc1cc(=O)[nH]c(SCC(=O)Nc2cc(S(=O)(=O)N3CCCCC3)ccc2C)n1,.,0.1,-6,0,0.0%,12,-7
COCc1c(C(=O)Nc2nc(C)cs2)oc2ccccc12,-2%,-0.7,-2,-35,-0.2%,-2,.
COc1ccc(N2C(=O)C3C4C=CC(C4)C3C2=O)c([N+](=O)[O-])c1 (stereo not drawn),4%,-0.3,2,-9,0.3%,1,-11
CN(C(=O)CSc1nncc2ccccc12)C1CCCCC1,-20%,-5.7,4,-8,0.3%,0,-6
CCN(CC)S(=O)(=O)c1csc(C(=O)Nc2ccccn2)c1,22%,-1.2,-1,-10,-2.1%,-11,-9
O=C(Nc1cccc(Cl)c1Cl)c1ccccc1NC(=O)C1CC=CCC1C(=O)O (stereo not drawn),13%,-5.4,-2,-6,1.6%,23,2
CC(C(=O)O)N1C(=O)c2ccccc2C1=O (stereo not drawn),13%,0.5,2,2,-2.3%,-3,2
COc1ccc(NC(=O)C2CCN(S(C)(=O)=O)CC2)c(OC)c1,4%,-1.4,2,-9,-0.4%,-6,4
COc1ccc(-n2c(=O)c3c4c(sc3n3c(=S)[nH]nc23)CCCC4)cc1,-7%,2.6,4,-1,7.5%,5,7
COc1cccc(CNC(=O)COC(=O)CCS(=O)(=O)c2ccc(C)cc2)c1,.,-1.6,-3,-6,6.6%,-8,17
CC1CCC2C(=O)N(c3ccccc3OC(=O)c3ccccc3F)C(=O)C2C1 (stereo not drawn),9%,-1.0,-27,-3,0.1%,8,-9
CN(C(=O)c1ccc(NC(=O)Cc2cccc(NC(=O)C3CCN(C(=O)C4CCCC4)CC3)c2)cc1)C1CCCC1,.,1.0,-3,-6,1.0%,1,3

# Structural class: those above containing a Cl atom.
SMILES,Sfp PPTase inh,D2 agonist,Six1-Eya2 blk,D2 PAM,PINK1 modulator,TRPV1 PAM,CtBP-E1A blk
C/C(=N\NC(=O)c1c(Br)c(C)nn1C)c1ccc(NC(=O)C(C)Oc2ccc(Cl)cc2C)cc1 (stereo not drawn),?,?,13,10,2.1%,-26,0
O=C(Nc1cccc(Cl)c1Cl)c1ccccc1NC(=O)C1CC=CCC1C(=O)O (stereo not drawn),13%,-5.4,-2,-6,1.6%,23,2

# Only D2 PAM, TRPV1 PAM and Six1-Eya2 blk, for 3 of the compounds above:
SMILES	D2 PAM	TRPV1 PAM	Six1-Eya2 blk
COCc1c(C(=O)Nc2nc(C)cs2)oc2ccccc12	-35	-2	-2
CN(C(=O)CC1C(=O)NCCN1Cc1cccc(F)c1F)C1CCOCC1 (stereo not drawn)	6	-3	-2
COc1ccc(N2C(=O)C3C4C=CC(C4)C3C2=O)c([N+](=O)[O-])c1 (stereo not drawn)	-9	1	2

# Additional records:
SMILES,Sfp PPTase inh,D2 agonist,Six1-Eya2 blk,D2 PAM,PINK1 modulator,TRPV1 PAM,CtBP-E1A blk
CCc1nccn1S(=O)(=O)c1ccc2ccccc2c1,6%,-1.7,6,-21,0.9%,1,1
CC(C)Oc1ccc(CCC(=O)NNC(=O)c2ccccc2C(=O)O)cc1,6%,-2.5,9,-5,4.4%,-12,4
CC(C)c1ccc(S(=O)(=O)N2CCN(C(=O)CCNS(=O)(=O)c3ccccc3F)CC2)cc1,.,4.8,3,2,-4.9%,7,0
N#Cc1cn(Cc2ccncc2)c(=O)[nH]c1=O,7%,3.8,6,7,-1.4%,-2,5
Cc1cc(C)n(CCNC(=O)c2ccc3c(c2)OCO3)n1,10%,-0.4,6,-2,2.8%,-8,3
CCCCSc1nnc2[nH]c(=O)cc(N)n12,5%,1.5,2,-3,?,-3,3
CCCCNc1c(-c2cccc(-c3ccc(OC)cc3)c2)nc2ccc(C)cn12,.,?,-22,21,-1.6%,0,-16
CC(C)OC(=O)C(C#N)c1nc2ccccc2nc1N1CCN(Cc2ccccc2)CC1 (stereo not drawn),13%,-0.6,-6,-14,21%,-4,-1
O=C(CCn1cccc1)Nc1cc(F)ccc1F,20%,-1.8,-7,-7,-0.5%,5,-10
COc1ccccc1S(=O)(=O)Nc1ccc2nc(C)sc2c1,.,-1.9,3,-2,-0.3%,.,-2
Cc1cc(Cl)ccc1N1C(=O)CC(SCCC(=O)O)C1=O (stereo not drawn),-1%,-2.3,29,-9,1.2%,4,2
O=C(Nc1ccc2c(c1)OCCO2)c1ccccc1Cl,.,-3.0,5,-7,0.9%,.,1
CCOC(=O)c1ccccc1NC(=O)N[C@@H](C)C(=O)OC,10%,-1.7,0,-2,?,8,3
O=C(C[C@H]1C[C@H](C(=O)N2CCOCC2)[C@@]2(CCC3CCCC3)c3[nH]c4ccc(Cl)cc4c3CCN2C1=O)NCCCn1ccnc1,.,-3.2,-10,-7,-0.8%,.,-8
CCCS(=O)(=O)NC(=O)C1(C)CCCN(C(=O)c2ccc(F)c(Cl)c2)C1 (stereo not drawn),.,-2.7,13,-10,0.4%,.,-15
C=C(C)C(=O)Nc1cccc(C2=NOC3(C2)C[C@@H](C(N)=O)N(C(=O)c2cc([N+](=O)[O-])cc([N+](=O)[O-])c2C)C3)c1 (stereo partly drawn),7%,7.8,-25,10,3.2%,-8,5
CCN(CC)c1ccc(C(=O)OCC(=O)NC(C)(C)C)cc1,7%,-4.5,-6,-4,2.0%,-4,2
O=C(c1cc(-c2ccc(Cl)cc2)nc2ccccc12)N1CCOCC1,.,-3.0,3,22,5.4%,9,-8
Cc1ccc(S(=O)(=O)N(CC(=O)Nc2ccccc2C(=O)O)c2cccc(Cl)c2C)cc1,16%,-0.8,-4,-10,2.2%,6,1
CCSc1nnc(NC(=O)CCCOc2ccc(C)cc2)s1,-18%,-0.2,5,-33,0.1%,4,.
COc1ccc(C(=O)Nc2ccccc2C(=O)NCc2cccnc2)cc1,7%,-1.8,13,25,7.0%,-7,3
CCN(CC)C(=N)N1c2ccccc2CCC1C (stereo not drawn),16%,-4.5,3,-5,0.9%,6,1
O=C(OC1CCOC1=O)c1cc(-c2ccc(Cl)cc2)nc2ccccc12 (stereo not drawn),-7%,-0.7,-1,-20,8.5%[38.3 µM],-3,2
Cc1ccc(Nc2nc(N/N=C/c3c[nH]c4ccccc34)nc(N3CCOCC3)n2)cc1,9%,-0.2,-21,-18,-0.4%,-11,-15
O=C(Nc1ccc(Cl)cc1)Nc1ccon1,-2%,8.6,1,-4,3.3%,-16,4

# Record cards (already shown):
# `CCCS(=O)(=O)NC(=O)C1(C)CCCN(C(=O)c2ccc(F)c(Cl)c2)C1` (stereo not drawn) across the screens: Sfp PPTase inh = .; D2 agonist = -2.7; Six1-Eya2 blk = 13; D2 PAM = -10; PINK1 modulator = 0.4%; TRPV1 PAM = .; CtBP-E1A blk = -15
# `CCN(CC)c1ccc(C(=O)OCC(=O)NC(C)(C)C)cc1` across the screens: Sfp PPTase inh = 7%; D2 agonist = -4.5; Six1-Eya2 blk = -6; D2 PAM = -4; PINK1 modulator = 2.0%; TRPV1 PAM = -4; CtBP-E1A blk = 2

# The listing continues.
SMILES,Sfp PPTase inh,D2 agonist,Six1-Eya2 blk,D2 PAM,PINK1 modulator,TRPV1 PAM,CtBP-E1A blk
Cc1cc(C)c2c(N)c(C(=O)Nc3cccc(C)c3C)sc2n1,-2%,-2.9,11,-4,?,5,3
Cc1cc(NS(=O)(=O)c2ccc(NC(=O)CCCOc3ccccc3C)cc2)no1,17%,1.9,-2,5,-0.2%,2,0
COC(=O)c1ccc(/C=C2/SC(=S)N(CCCC(=O)Nc3ccccn3)C2=O)cc1,0%,-0.2,-2,-13,0.0%,2,1
O=C(Cc1nnc(NC(=O)Nc2ccc(Cl)cc2)s1)NCc1ccccc1,2%,-1.0,7,8,?,0,-19
COc1cccc(NC(=O)C2C3C=CC4(O3)C2C(=O)N(CCN2CCCCC2)C4C(=O)NC2CCCCC2C)c1 (stereo not drawn),-8%,-3.1,2,1,-0.1%,-9,26
Cc1cccc(C)c1-n1c(C)nn(-c2ncc(C(F)(F)F)cc2Cl)c1=O,7%,-4.1,4,-2,1.5%,1,-8
CSc1nc(C)cc(OCC#N)n1,9%,-0.1,5,-5,2.5%,1,1
Cc1onc(-c2ccccc2)c1C(=O)NC(CC(=O)O)c1ccc(OC(C)C)cc1 (stereo not drawn),18%,-3.7,-2,-8,-0.7%,.,1
COc1ccc(N2CC(C(=O)Nc3ncccc3C)CC2=O)cc1 (stereo not drawn),16%,-3.3,-6,2,1.5%,7,5
COC(=O)CSc1nnc(C)n1-c1cccc(C#N)c1,-4%,2.6,-2,1,-1.5%[38.3 µM],6,-8
O=c1nc(N2CCOCC2)ccn1-c1nc(-c2ccccc2)oc1-c1ccccc1,-12%,-2.2,-4,-18,.,-20,6

# Screening data deposited in PubChem by National Center for Advancing Translational Sciences (NCATS).
